Compound activity from PubChem BioAssay.
POLK inh – qHTS for Inhibitors of Polymerase Kappa. 400,000 compounds, 0.53% hits. Potency, µM (doses to about 107 µM), inactives show at the highest dose activity, negative = inhibition, most hits filed as inhibitors. purified Pol kappa, fluorescent DNA synthesis assay, 10 min; also: potency is read from the fitted curve at half-maximal effect; % is scaled to controls: 0 for no effect and ±100 for the full control effect
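Readout: fluorescence, taken kinetically at 0 and 10 min. Conditions: 10 nM Pol kappa, 15 min RT compound preincubation, 50 nM substrate final. Controls: enzyme-free buffer wells.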
BLM helicase inh – qHTS Assay for Inhibitors of Bloom's syndrome helicase (BLM); RecQ-like DNA helicase BLM (Homo sapiens), P54132; recombinant BLM DNA unwinding, fluorescence dequenching; Potency, µM (doses to about 56.1 µM), for the others: top-dose activity change, negative = inhibition, hits mostly inhibitors; 350,000 compounds, 0.2% hits; AID 2528, 2010;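 also: potency is read from the fitted curve at half-maximal effect; plate controls were vehicle for no effect and no enzyme for full effect; nearly all actives have a fitted effect of over 35% in size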
Glioma ERSR ind – qHTS for Inducers of the Endoplasmic Reticulum Stress Response (ERSR) in Human Glioma: qHTS. U87-MG GRP78 promoter luciferase reporter, 16 h. Potency, µM, without a hit: at the highest dose activation, actives largely listed as activators. 420,000 compounds, 0.02% hits. AID 602332, 2012; also: potency is read from the fitted curve at half-maximal effect; series mostly up to about 76 µM; % of control where 0% means no effect; nearly all actives have a fitted effect of over 35% in size
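ERSR induction read as luciferase luminescence (Bright-Glo, 10 min at room temperature) in stably transfected human U87-MG glioma cells exposed to compounds for 16 h, using GRP78 as sensor.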
LDHA block – qHTS assay for inhibitors of human lactate dehydrogenase; 480,000 compounds, 0.15% hits; AID 1347041, 2019; activity change, % (values are at about 110 or 230 µM); purified LDHA, NADH/diaphorase-resazurin fluorescence; stronger effect = lower value; in the data active = activity change below about -30%; inconclusive = mostly about -25% to -30%;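 also: plate controls were DMSO wells for no effect and wells without enzyme for full effect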
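Human LDH5 at 2 nM final in Tris HCl pH 7.4 with 0.06 mM NADH and 0.2 mM pyruvate, reacted 5 minutes at room temperature. Remaining NADH coupled via diaphorase/resazurin; resorufin fluorescence read at 0 and 20 minutes, normalized to enzyme-free and DMSO wells.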
Apoferritin bind – qHTS Assay for Identification of Novel General Anesthetics. Ferritin light chain (Equus caballus), P02791. apoferritin/1-aminoanthracene competitive binding, fluorescence. Potency, µM (top dose mostly 77.5 µM), inactives show at the top dose activity change, negative = displacement, hits mostly inhibitors. 350,000 compounds, 0.074% hits. AID 485281, 2010; also: potency is read from the fitted curve at half-maximal effect; % is scaled to controls: 0 for no effect and ±100 for the full control effect; nearly all actives have a fitted effect of over 20% in size
Target sequence (P02791 2-175 limits assumed): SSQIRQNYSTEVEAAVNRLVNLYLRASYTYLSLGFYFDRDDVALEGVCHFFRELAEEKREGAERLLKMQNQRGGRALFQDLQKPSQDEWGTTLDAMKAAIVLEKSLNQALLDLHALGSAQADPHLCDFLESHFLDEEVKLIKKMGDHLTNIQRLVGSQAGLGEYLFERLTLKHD
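Read-out: endpoint 1-AMA fluorescence, excitation 380 nm and emission 535 nm, after compounds sit 10 min at room temperature with 10 uM horse-spleen apoferritin in 50% saturated 1-AMA/PBS. Values come from four-parameter Hill fits.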
Pol iota inh – qHTS for Inhibitors of Polymerase Iota; 390,000 compounds, 1% hits; Potency, µM (doses to about 115 µM), inactives show top-dose activity, negative = inhibition, most hits filed as inhibitors; Pol iota fluorescent replication assay, 10 min; AID 588590, 2011; also: potency is read from the fitted curve at half-maximal effect
Target sequence (Q9UNA4 whole entry, looked up): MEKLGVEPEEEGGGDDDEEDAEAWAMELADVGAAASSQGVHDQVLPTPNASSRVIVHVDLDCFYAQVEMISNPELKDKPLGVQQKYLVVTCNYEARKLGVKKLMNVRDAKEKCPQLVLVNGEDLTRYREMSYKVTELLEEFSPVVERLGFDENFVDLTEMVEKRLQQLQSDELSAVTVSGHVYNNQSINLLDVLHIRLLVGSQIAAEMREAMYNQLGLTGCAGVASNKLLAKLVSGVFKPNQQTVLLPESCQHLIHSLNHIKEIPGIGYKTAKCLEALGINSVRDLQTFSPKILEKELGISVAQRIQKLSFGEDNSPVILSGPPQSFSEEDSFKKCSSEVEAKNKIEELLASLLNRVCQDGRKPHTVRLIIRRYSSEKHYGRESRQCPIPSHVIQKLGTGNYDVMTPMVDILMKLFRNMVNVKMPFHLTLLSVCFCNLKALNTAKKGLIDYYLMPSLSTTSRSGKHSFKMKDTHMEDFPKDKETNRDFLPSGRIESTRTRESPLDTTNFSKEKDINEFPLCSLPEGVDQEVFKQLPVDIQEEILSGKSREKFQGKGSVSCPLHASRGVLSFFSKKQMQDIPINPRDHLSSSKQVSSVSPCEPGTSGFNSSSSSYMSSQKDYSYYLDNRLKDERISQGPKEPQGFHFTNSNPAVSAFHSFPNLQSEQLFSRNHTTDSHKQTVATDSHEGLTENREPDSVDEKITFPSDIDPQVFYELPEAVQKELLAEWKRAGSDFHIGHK
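Fluorescent replication assay read twice, at 0 min and 10 min after adding 50 nM (final) substrate. Enzyme (10 nM) and compounds were first incubated 15 min at room temperature; enzyme-free buffer wells were negative controls.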
Active calls of the source: *; ? = inconclusive; . = not tested or not shown; & = joins results of further samples; [ ] = another dose, or the depositor's remark. Unless noted, calls follow the shape of the dose curve; as a rule, active = well fitted curve in the direction sought with a large enough effect; inconclusive = small, poorly fitted or top-dose-only effect, or another doubt; inactive = no such curve, though single readings can be large; an effect the other way counts as inactive or inconclusive.

SMILES | POLK inh | BLM helicase inh | Glioma ERSR ind | LDHA block | Apoferritin bind | Pol iota inh
O=C(Nc1ccc2oc(=O)ccc2c1)c1ccc(-c2cccc(Cl)c2)o1 | -10% | -7% | -2% | -15 | -1% | 11%
O=C(/C=C/c1ccccc1Cl)NCc1ccco1 | -16% | -3% | 5% | -5 | -19% | -6%[58.9 µM]
CC(C)[C@@H](C(=O)OCC(=O)c1ccc2c(c1)NC(=O)CO2)N1C(=O)c2ccccc2C1=O | -2% | . | -3% | -9 | . | 52%[activator]
C/C(=N\NC(=O)c1ccccc1O)c1c(O)cc(C)oc1=O | 0% | -3% | 3% | -1 | -15% | -17%[58.9 µM]
C=CCn1c(CCNC(=O)c2ccccc2F)nnc1SCc1nc2ccccc2c(=O)[nH]1 | 0% | 3% | -5% | 1 | -10% | -2%[58.9 µM]
Cn1c(SCC(=O)Nc2nc(C(C)(C)C)cs2)nnc1C1CC1 | 4% | -1% | -7% | -5 | -7% | 7%
NCCNS(=O)(=O)c1cccc2c(Cl)cccc12 | 0%[60.1 µM] | 45%&36%&38%[activator] | -8%&0%&-7%&-5%&-3% | . | -15%&-11%&-6% | 0%[58.9 µM]
COc1ccc(OC)c(C2CC(=O)N3CN(c4ccccc4)CSC3=C2C#N)c1 (stereo unspecified) | -5% | -11% | -5% | 4 | ? | 26%
S=C(NCc1ccco1)N/N=C/c1ccccc1Cl | -6% | -3% | -5% | -2 | -3% | -1%
CCCCN1CCCCC1C(=O)Nc1c(C)cc(C)cc1C (stereo unspecified) | -13% | -5% | -3% | -9 | -13% | -1%
Cc1ccc(OCc2nnc(SCC(=O)Nc3cc(C)on3)n2C)cc1 | 0% | -1% | -4% | -1 | -4% | -16%[58.9 µM]
NC(=O)COc1ccc(C(=O)/C=C2/C(=O)Nc3ccccc32)cc1 | -25% | -2% | -12% | 0 | -15% | 34%[activator]
CC(C)c1ccc(-c2c(NCCc3ccccc3)c(=O)c2=O)cc1 | -22% | -6% | 0% | -4 | 0% | -25%
CN(C)CCCNc1cc(Cl)c(S(=O)(=O)N2CCCCC2)cc1C(=O)O | -7% | -2% | -2% | -1 | 13% | 14%
COc1ccc(/C=C2\N=C(C)N(c3ccc(C(=O)O)cc3)C2=O)cc1OC | 0% | 0% | -5% | -9 | -4% | 3%
C=CCOc1ccc(C(=O)/C=C2/C(=O)Nc3ccccc32)cc1 | -1% | -11% | 2% | -4 | -8% | 21%
CCOC(=O)N1CCN(C(=O)c2ccc3c(c2)NC(=O)/C(=C/c2ccccc2)S3)CC1 | 13% | -3% | -6% | 1 | -15% | -5%
OC(CN1CCc2ccccc2C1)c1ccccc1 (stereo unspecified) | 1% | -2% | -3% | -5 | -8% | 14%
CCOc1cccc2cc(-c3nc4ccc(C(=O)O)cc4[nH]3)c(=O)oc12 | -3%[60.1 µM] | 0% | . | 14 | 226%[activator] | -21%
COc1ccccc1N1C(=O)C2C(C(=O)c3ccccc3)=NN(c3ccccc3OC)C2C1=O (stereo unspecified) | -10% | -6% | -5% | -6 | 222%[activator] | 105%[activator]

The last 5 compounds of the section above open the next one:
SMILES | POLK inh | BLM helicase inh | Glioma ERSR ind | LDHA block | Apoferritin bind | Pol iota inh
C=CCOc1ccc(C(=O)/C=C2/C(=O)Nc3ccccc32)cc1 | -1% | -11% | 2% | -4 | -8% | 21%
CCOC(=O)N1CCN(C(=O)c2ccc3c(c2)NC(=O)/C(=C/c2ccccc2)S3)CC1 | 13% | -3% | -6% | 1 | -15% | -5%
OC(CN1CCc2ccccc2C1)c1ccccc1 (stereo unspecified) | 1% | -2% | -3% | -5 | -8% | 14%
CCOc1cccc2cc(-c3nc4ccc(C(=O)O)cc4[nH]3)c(=O)oc12 | -3%[60.1 µM] | 0% | . | 14 | 226%[activator] | -21%
COc1ccccc1N1C(=O)C2C(C(=O)c3ccccc3)=NN(c3ccccc3OC)C2C1=O (stereo unspecified) | -10% | -6% | -5% | -6 | 222%[activator] | 105%[activator]
CCOc1ccc(NC(=O)Cc2ccc(S(=O)(=O)N3CCOCC3)s2)cc1OCC | -14% | -15% | -1% | 0 | -3% | 13%
COc1ccc(-n2c(C)cc(SC)c(C(C)=O)c2=S)cc1 | -15% | -4% | -7% | -4 | -13% | -8%
CCCCn1ccc(=O)c2c(C(F)(F)F)nccc21 | -1% | 1% | -4% | -1 | -6% | 7%
CCOC(=O)c1cc(C#N)c(N2CCOCC2)nc1-c1ccccc1 | -6% | 2% | -1% | -6 | -13% | 86%[activator]
COc1ccc(/C=C2/S/C(=N/N=C3\CC4CCC3(C)C4(C)C)NC2=O)cc1 (stereo unspecified) | -11% | -5% | 0% | -8 | -24% | 7%
Cc1cccc(C(=O)Oc2ccc(/C=N/NC(=O)c3ccccc3O)cc2)c1 | -20% | -7% | 3% | -3 | -10% | 9%
C=CC[C@@H]1Cc2c(Br)ccc(Br)c2[C@@H](CC=C)N1 | -22% | -7% | -4% | -14&1 | -10% | 39%[activator]
CC1=C(C(=O)Nc2ccccc2)C(c2ccncc2)n2nnnc2N1 (stereo unspecified) | -3% | 1% | -3% | -2 | -10% | 11%
Cc1ccccc1NC(=O)C1CC(Cl)=CCC1C(=O)O (stereo unspecified) | -12% | 1% | -2% | -7 | -15% | -6%
CC(C)c1nnc(NC(=O)CCC(=O)NCCc2ccccc2)s1 | -6% | -7% | -1% | 1 | -4% | 83%[activator]
C/C(=N\NC(=O)c1ccc(NS(=O)(=O)c2cccs2)cc1)c1ccc2ccccc2c1 | -4% | -5% | 3% | -4 | -1% | 10%
O=C(COC(=O)/C=C/c1ccccc1Cl)NCc1ccco1 | -10% | -5% | 4% | 0 | ? | ?
CNC(=O)COC(=O)/C=C/c1ccco1 | -16% | -9% | 1% | -7 | -3% | -23%
COc1ccc2oc(C(F)(F)C(F)(F)F)cc(=O)c2c1 | -1% | -1% | -2% | -4 | -5% | 59%[activator]
CCCc1cc(=O)[nH]c(SCC(=O)N(C)CC(=O)Nc2ccccc2CC)n1 | -21% | 0% | -5% | -5 | -9% | 17%
C/C(=N\NC(=O)c1cccnc1)c1c(O)cc(C)oc1=O | -5% | -2% | 0% | 6 | -2% | 32%[activator]
COc1cccc(OC)c1OCCOCCn1cnc2ccccc2c1=O | -2% | -1% | -4% | -10 | -10% | 28%
CCOc1ccccc1NC(=O)c1cccc(N2C(=O)CCC2=O)c1 | -7% | -2% | 2% | -6 | -6% | 13%
COc1ccccc1-n1c(C)cc(SC)c(C(C)=O)c1=S | -6% | -1% | -4% | -6 | -1% | 22%
CC(NS(=O)(=O)c1ccc([N+](=O)[O-])cc1)C(=O)NN (stereo unspecified) | -15% | -3% | 1% | -5 | 7% | 28%
CC(C)OCCCNC(=O)COCC(=O)Nc1ccc(OCCc2ccccc2)cc1 | 6% | -1% | 1% | -4 | ? | 50%[activator]
N#Cc1cn(CC(=O)N2CCCC2)c2ccccc12 | -10% | 1% | -1% | -2 | -7% | 14%
CN1CSC2=C(C#N)C(c3cccc(OCc4ccccc4)c3)CC(=O)N2C1 (stereo unspecified) | -13% | -6% | -6% | 0 | -24% | 3%
COc1ccc(CC(=O)NCc2ccco2)cc1OC | -2% | -7% | -3% | -3 | -5% | -12%
COc1cc(/C=C(/C#N)C(=O)Nc2ccccc2)c(Br)cc1OCc1ccc(C(=O)O)cc1 | -16% | 1% | 9% | -9 | -10% | ?
O=C(CCCCO)CCCCCCCC[C@H]1N[C@H](CO)[C@H](O)[C@@H]1O[C@@H]1O[C@H](CO)[C@@H](O)[C@H](O)[C@H]1O | -15% | -5% | -4% | -10 | 0% | ?
COc1ccc(/C=C2\CCCc3c2nc2ccc(C)cc2c3C(=O)O)cc1O | -4% | -7% | -1% | 10 | 2% | ?
O=C(O)C1CCC(N2C(=O)c3c(Cl)c(Cl)c(Cl)c(Cl)c3C2=O)CC1 (stereo unspecified) | . | -18% | . | . | -5% | .
CC1=C(C(=O)OCc2ccccc2)C(c2cccnc2)n2nnnc2N1 (stereo unspecified) | -7% | -1% | -6% | -3 | -12% | 0%
O=C(O)c1c2c(nc3ccccc13)/C(=C/c1ccc(OC(F)F)cc1)CCC2 | -12% | -2% | 1% | 13 | 2% | 62%[activator]
CCn1c(Cc2ccccc2)nnc1SCC(=O)Nc1ccccc1 | -23% | -1% | -1% | -6 | -19% | 13%
N#CC(c1ccccc1)(c1ncc(C(F)(F)F)cc1Cl)N1CCOCC1 (stereo unspecified) | -13% | -5% | -3% | 6 | ? | 6%
Cc1nc(NC(=O)CSc2nnc(C3CC3)n2C)sc1C(=O)N(C)C | 1% | 0% | -4% | -1 | -5% | 6%
COc1cccc2sc(N(CCN(C)C)C(=O)/C=C/c3cccs3)nc12 | 3% | 34%[activator] | -13% | -4 | -5% | 34%
C=CCn1c(SCc2c(C)noc2C)nc2cc(C(=O)O)ccc2c1=O | -4% | -3% | -10% | -1 | -7% | 22%
COc1cccc(NCc2cc(=O)oc3cc(C)c(C(C)C)cc23)c1 | -11% | -10% | -8% | 3 | ? | 80%[activator]
N#CC1=C2SCN(c3ccccc3)CN2C(=O)CC1c1ccccc1Cl (stereo unspecified) | -21%&-18% | -6% | -3%&-4% | -4&5 | ? | -7%&-7%
Cc1ccc(C2(c3noc(CN(C)CC4CCCCO4)n3)CCCC2)cc1 (stereo unspecified) | -10% | -5% | -1% | -2 | -15% | 23%
COc1ccc(/C=C/C(=O)NC(=S)N2CCCC(C(N)=O)C2)cc1 (stereo unspecified) | -19% | 0% | -3% | -10 | -8% | -20%
O=C(Nc1ccc2oc(=O)ccc2c1)c1ccco1 | -7% | 1% | 7% | -4 | -4% | 8%
COc1ccc(CN2CCN(Cc3cc4ccccc4o3)CC2CCO)c(F)c1 (stereo unspecified) | -17% | 0% | -5% | -12 | -6% | 8%
CCOC(=O)c1cc(C#N)c(Oc2ccccc2OC)nc1-c1ccccc1 | -13% | -11% | -5% | -4 | ? | -4%
COC(=O)C1=NN(c2cccc(C)c2)C2C(=O)N(c3ccccc3OC)C(=O)C12 (stereo unspecified) | -9% | 0% | -4% | -2 | 29% | 1%
FC(F)(F)c1cnc(-c2cnc3c(-c4ccc(Cl)cc4)cnn3c2)c(Cl)c1 | -8% | 2% | -4% | -7 | 30%[activator] | 11%

Looked up above.
Reading for FC(F)(F)c1cnc(-c2cnc3c(-c4ccc(Cl)cc4)cnn3c2)c(Cl)c1 in BLM helicase inh: 2%
Reading for COc1ccc(CN2CCN(Cc3cc4ccccc4o3)CC2CCO)c(F)c1 (stereo unspecified) in Apoferritin bind: -6%

A portion of the library, so the mix of outcomes need not match the whole.
